MenB inh: blocks the Mycobacterium tuberculosis MenB enzyme; P9WNP5; MenB enzyme assay, absorbance read-out; some hits fall short of the stated cut; inhibition, %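 (about 12 µg/mL by stock and volumes)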; 100,000 tested, 0.43% active; AID 540299;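 active means mean of two replicates above 30%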;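 further: 0% = no compound and 100% = wells with inactive enzyme; the first replicate is given; strong numbers were not always called active; inactives centre near -10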
MbtI inh: inhibitors of Mycobacterium tuberculosis siderophore enzyme MbtI. purified MbtI enzyme, fluorescence intensity read-out. inhibition, %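 (about 17 µg/mL by stock and volumes)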. 100,000 tested, 0.89% active. P9WFX0;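 active means above 50% in both replicates, above 80% if mildly self-fluorescent; inactive means the rest, strongly fluorescent compounds included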;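 further: 0% = mean of negative and 100% = mean of positive controls; one replicate is shown; some compounds called inactive have numbers as strong as hits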
Target sequence (P9WFX0 whole entry, looked up): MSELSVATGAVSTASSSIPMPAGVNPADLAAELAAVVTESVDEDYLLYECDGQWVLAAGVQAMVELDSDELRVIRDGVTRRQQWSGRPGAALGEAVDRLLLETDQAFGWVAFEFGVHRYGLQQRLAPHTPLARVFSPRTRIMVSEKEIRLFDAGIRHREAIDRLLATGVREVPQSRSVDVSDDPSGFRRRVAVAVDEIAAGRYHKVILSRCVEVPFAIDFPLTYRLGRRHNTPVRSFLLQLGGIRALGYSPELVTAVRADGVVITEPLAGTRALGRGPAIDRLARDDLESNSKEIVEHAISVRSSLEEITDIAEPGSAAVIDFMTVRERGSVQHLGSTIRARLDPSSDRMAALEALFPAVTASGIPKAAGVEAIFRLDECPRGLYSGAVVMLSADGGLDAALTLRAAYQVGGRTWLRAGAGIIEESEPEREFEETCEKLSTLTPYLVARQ
PV pol inh: inhibitors of poliovirus RNA polymerase binding and polymerization. P03300. poliovirus polymerase elongation, fluorescence polarization; active compounds read low. % elongation, % (compound at 16.7 µg/mL). 150,000 tested, 0.66% active. AID 588519; in the data active means % elongation below about 90%; further: some results filed as inactive read as strong as hits
Target sequence (P03300 1749-2209 limits assumed): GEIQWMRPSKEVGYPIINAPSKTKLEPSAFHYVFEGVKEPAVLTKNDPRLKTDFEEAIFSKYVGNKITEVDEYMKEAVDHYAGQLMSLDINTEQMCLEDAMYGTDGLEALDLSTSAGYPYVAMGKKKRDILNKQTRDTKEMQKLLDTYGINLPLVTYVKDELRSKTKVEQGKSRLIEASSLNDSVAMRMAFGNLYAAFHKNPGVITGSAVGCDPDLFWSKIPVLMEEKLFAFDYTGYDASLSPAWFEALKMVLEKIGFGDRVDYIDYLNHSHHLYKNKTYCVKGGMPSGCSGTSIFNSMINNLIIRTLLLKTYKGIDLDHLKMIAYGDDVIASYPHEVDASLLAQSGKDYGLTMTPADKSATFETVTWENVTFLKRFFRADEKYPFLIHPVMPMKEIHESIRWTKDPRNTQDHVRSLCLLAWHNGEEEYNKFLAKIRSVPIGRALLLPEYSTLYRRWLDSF
PV pol inh intensity: further read-out of PV pol inh, marked with its call; % elongation; measured here: total intensity read-out; formula for this scale not given here;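 total fluorescence in place of polarization; lower means less elongation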
Numbers without * were called inactive; & = joins results of further samples.

`COc1ccc(CNc2cc(C)ccn2)cc1` gave MenB inh 8, MbtI inh -30, PV pol inh 103 and PV pol inh intensity 99.
N#Cc1nc(NC(=O)c2cc(-c3cccs3)nc3ccccc23)[nH]c1C#N was read as MenB inh -1, MbtI inh 22, PV pol inh 114 and PV pol inh intensity 118.
For CC(=O)NC12CC3CC(C1)CC(C(=O)OCC(=O)Nc1ncc(Cl)c(C)c1Cl)(C3)C2 the results were MenB inh 5, MbtI inh -1, PV pol inh 104 and PV pol inh intensity 128.
Screening O=C(CSc1ccccn1)Nc1c(C(=O)C2CC2)oc2ccccc12 returned MenB inh 1, MbtI inh 2, PV pol inh 99 and PV pol inh intensity 102.
`CCCNC(=O)CSc1nccn1Cc1ccco1` gave MenB inh -7, MbtI inh 8, PV pol inh 102 and PV pol inh intensity 100.
Screening Cc1cc(C)nc(NOCc2ccccc2)n1 returned MenB inh -11, MbtI inh -6, PV pol inh 102 and PV pol inh intensity 102.
O=C(Cc1cccc2ccccc12)NC1CC1 was read as MenB inh -27, MbtI inh -6, PV pol inh 100 and PV pol inh intensity 104.
Screening CCOC(=O)C1CCN(C(=O)Cn2cc(C(F)(F)F)cc(Cl)c2=O)CC1 returned MenB inh -1, MbtI inh 5, PV pol inh 102 and PV pol inh intensity 106.
`O=c1c2ccccc2[nH]c(=S)n1C1CCCC1` gave MenB inh 3&-28, MbtI inh -7&-2, PV pol inh 105&103 and PV pol inh intensity 108&102.
For c1ccc(-c2nc3ccccc3[nH]2)cc1 the results were MenB inh -7, MbtI inh 102, PV pol inh 108 and PV pol inh intensity 134.
`CC(OC(=O)C12CC3CC(CC(O)(C3)C1)C2)C(=O)N1CCCc2ccccc21` (stereo not drawn) gave MenB inh -2, MbtI inh -8, PV pol inh 104 and PV pol inh intensity 106.
`C=CCn1c(C(=O)OCC)cc2oc(C)cc21` gave MenB inh 11, MbtI inh 52, PV pol inh 101 and PV pol inh intensity 100.
`CCCCOC(=O)c1cc(O)c(O)c(O)c1` gave MenB inh -32, MbtI inh 103, PV pol inh 101 and PV pol inh intensity 102.
Screening O=C1OC2(CCCC2)OC(=O)C1=Cc1ccc(OCc2ccccc2)cc1 returned MenB inh 4, PV pol inh 97 and PV pol inh intensity 91.
Screening CC(C)n1c(=N)c(C(=O)NC2CCCC2)cc2c(=O)n3ccccc3nc21 returned MenB inh -82, MbtI inh 117, PV pol inh 105 and PV pol inh intensity 104.
Screening Cn1ccnc1SCC(=O)N1CCc2ccccc21 returned MbtI inh -5, PV pol inh 101 and PV pol inh intensity 104.
Oc1ccccc1-c1cc(C(F)(F)F)nc(-c2ccccc2)n1 was read as MenB inh 16, MbtI inh -4, PV pol inh 101 and PV pol inh intensity 104.
`Cc1cc2cc(CNC(=S)NCc3ccccc3)ccc2[nH]1` gave MenB inh -44, MbtI inh -14, PV pol inh 102 and PV pol inh intensity 104.
For COCc1cc(C)nc2sc(C(=O)OC)c(-n3cccc3)c12 the results were MenB inh -3, PV pol inh 102 and PV pol inh intensity 97.
For CN/N=C/c1cc2cc(OC)ccc2nc1Cl the results were MenB inh -17, MbtI inh 18, PV pol inh 100 and PV pol inh intensity 99.
`O[C@@H]1[C@@H](O)C=C2CCN3Cc4cc5c(cc4[C@H]1C23)OCO5` (stereo partly drawn) gave MenB inh -1, MbtI inh -21, PV pol inh 101 and PV pol inh intensity 100.
N#Cc1ccc(CN2C(=O)NC3(CCCc4ccccc43)C2=O)cc1 (stereo not drawn) was read as MenB inh -13, MbtI inh -4, PV pol inh 100 and PV pol inh intensity 109.
Screening COc1ccc(Cl)cc1C(=O)NCc1ccc(C(=O)O)cc1 returned MenB inh -10, MbtI inh -10, PV pol inh 101 and PV pol inh intensity 102.
CCc1ccc(N/N=C(\C#N)C(=O)N2CCN(C)CC2)cc1 was read as MenB inh -139, MbtI inh 6, PV pol inh 102 and PV pol inh intensity 110.
For O=C1c2ccccc2C(=O)N1CCc1nn2c(-c3cccnc3)nnc2s1 the results were MenB inh 9, MbtI inh 87*, PV pol inh 100 and PV pol inh intensity 102.
For Cc1c(-c2nn3c(Cc4ccccc4)nnc3s2)nnn1-c1ccccc1 the results were MenB inh -18 and MbtI inh -8.
For O=c1oc2cc(O)ccc2s1 the results were MenB inh 5, MbtI inh 3, PV pol inh 101 and PV pol inh intensity 102.
O=C(Nc1ccccc1N1CCCCC1)c1ccc(F)cc1 was read as MenB inh -18, MbtI inh -3, PV pol inh 103 and PV pol inh intensity 100.
`CCCCc1noc(-c2ccc(OC(=O)c3ccccc3)cc2)n1` gave MenB inh -45, MbtI inh 3, PV pol inh 103 and PV pol inh intensity 100.
CCOC(=O)N1CCC(N2C(=O)c3ccccc3C2O)CC1 (stereo not drawn) was read as MenB inh 3, MbtI inh -37, PV pol inh 102 and PV pol inh intensity 104.
For COc1ccc2nc(NC(=O)C3CCCN(S(=O)(=O)c4ccc5c(c4)oc(=O)n5C)C3)sc2c1 (stereo not drawn) the results were MenB inh -29, MbtI inh 1, PV pol inh 101 and PV pol inh intensity 104.
For CC1=C(C(=O)OC(C)C)C(C)C(C(=O)OC(C)C)=C(C)N1 the results were MenB inh -80, MbtI inh -94, PV pol inh 104 and PV pol inh intensity 100.
For CNC(=O)Nc1cn(C)c2ccccc12 the results were MenB inh 6, MbtI inh -7, PV pol inh 96 and PV pol inh intensity 98.
O=C(Oc1cccnc1)c1cccc(Br)c1 was read as MbtI inh -18, PV pol inh 101 and PV pol inh intensity 104.
Screening O=C(Cc1cccc2ccccc12)N(Cc1nnc(-c2ccccc2Cl)o1)C1CC1 returned MenB inh -21, MbtI inh 12, PV pol inh 104 and PV pol inh intensity 108.
O=C(Nc1cccc(-c2csc(NC(=O)c3ccc(F)cc3)n2)c1)c1ccc(F)cc1 was read as MbtI inh -2, PV pol inh 104 and PV pol inh intensity 107.
`COc1cc2c(cc1OC)C(CC#N)=NCC2` gave MenB inh -47, PV pol inh 103 and PV pol inh intensity 108.
For CC(CNC(=O)CC1=NS(=O)(=O)c2ccccc2N1)c1ccccc1 (stereo not drawn) the results were MenB inh -34, MbtI inh -8, PV pol inh 106 and PV pol inh intensity 98.
Cc1ccc(-c2cccc(N)c2)o1 was read as MenB inh -35, MbtI inh 90, PV pol inh 102 and PV pol inh intensity 103.
Screening CN1CCN(NC(=S)Nc2ccccc2)CC1 returned MenB inh 23, MbtI inh -10, PV pol inh 101 and PV pol inh intensity 100.
For CCOC(=O)N1CCC(=NNC(=O)CSc2nnc(-c3ccccc3)n2-c2ccccc2)CC1 the results were MenB inh -29, MbtI inh -7, PV pol inh 107 and PV pol inh intensity 108.
For CC(C)C1=C2CCCCC2NC(=O)N1 (stereo not drawn) the results were MenB inh -3, PV pol inh 99 and PV pol inh intensity 99.
For COc1ccccc1C(=O)C1C(=O)NC23CCN(C)CC2C1c1cc(Cl)ccc1O3 (stereo not drawn) the results were MenB inh -12, MbtI inh 10, PV pol inh 99 and PV pol inh intensity 99.
O=C(Cn1nnc(-c2ccc(S(=O)(=O)N3CCCC3)cc2)n1)Nc1ccccc1-n1cccc1 was read as MenB inh 16, MbtI inh -2, PV pol inh 99 and PV pol inh intensity 103.
O=C(Cc1coc2cc(O)ccc12)OCC(=O)c1ccc2[nH]c(=O)[nH]c2c1 was read as MenB inh -12, MbtI inh -7, PV pol inh 72* and PV pol inh intensity 77*.
`Cc1ccc(-c2nc(CSCC(=O)NC3CC3)c(C)o2)cc1` gave MenB inh 3, MbtI inh 34, PV pol inh 102 and PV pol inh intensity 104.
CCCCNC(=O)c1cccc(OC)c1 was read as MenB inh -14, MbtI inh -2, PV pol inh 102 and PV pol inh intensity 102.
For Cc1nc(C(N)=S)cs1 the results were MenB inh 10, MbtI inh 6, PV pol inh 104 and PV pol inh intensity 107.
For CCOc1ccc(-c2nc(COC(=O)C(NC(=O)c3ccco3)C(C)C)cs2)cc1OC (stereo not drawn) the results were MenB inh -35, MbtI inh 111, PV pol inh 103 and PV pol inh intensity 99.
For CN(C)S(=O)(=O)c1ccc(S(=O)(=O)N2CCC(c3nc4c(nnn4Cc4cccc(F)c4)c(=O)[nH]3)CC2)cc1 the results were MenB inh -16, MbtI inh -2, PV pol inh 101 and PV pol inh intensity 100.
For N#Cc1c(N)nc2c(c1-c1ccc3c(c1)OCO3)CCc1ccccc1-2 the results were MenB inh -29, MbtI inh inactive, PV pol inh 101 and PV pol inh intensity 104.
Cc1ccc(S(=O)(=O)N(c2cccc(Cl)c2)c2nc3ccccc3s2)cc1 was read as MenB inh 6, MbtI inh -15, PV pol inh 101 and PV pol inh intensity 110.
Cc1cccc(/C=C2/NC(=O)NC2=O)c1 was read as MenB inh -4, MbtI inh 32, PV pol inh 101 and PV pol inh intensity 100.
O=C(Cc1c(F)cccc1Cl)NCC1CCCO1 (stereo not drawn) was read as MenB inh 4, MbtI inh -8, PV pol inh 102 and PV pol inh intensity 103.
For CN1CCN(C(=O)c2cc3c(ccc4ccccc43)oc2=O)CC1 the results were MenB inh -26, MbtI inh 107, PV pol inh 101 and PV pol inh intensity 96.
O=C(CSC1=NNC(c2ccccn2)S1)c1ccc(Cl)cc1 (stereo not drawn) was read as MenB inh -53, MbtI inh 27, PV pol inh 104 and PV pol inh intensity 106.
`O=C(N1CCOCC1)C(F)(F)C(F)(F)C(F)(F)F` gave MenB inh -22, MbtI inh -11, PV pol inh 100 and PV pol inh intensity 103.
Cc1ccc(S(=O)(=O)N2Cc3ccccc3CC2C(=O)N2CCCCC2)cc1 (stereo not drawn) was read as MenB inh -57, MbtI inh -7, PV pol inh 103 and PV pol inh intensity 101.
Screening Nc1cccc(C(=O)OC2CSC2)c1 returned MenB inh -28, PV pol inh 95 and PV pol inh intensity 89.
Screening O=C(/C=C/c1ccco1)NCCSc1ncc(-c2ccc(F)cc2)[nH]1 returned MenB inh 0, MbtI inh 5, PV pol inh 105 and PV pol inh intensity 99.
CCC(Sc1nc2ncccc2o1)C(=O)N(Cc1ccccc1)C(C)C (stereo not drawn) was read as MenB inh -31, MbtI inh 115, PV pol inh 97 and PV pol inh intensity 99.
For O=C(NCCc1ccccc1)C1=CC=CN2CCS(=O)(=O)N=C12 the results were MenB inh -29, MbtI inh 103, PV pol inh 105 and PV pol inh intensity 109.
`CCCCN1CN(CCc2ccccc2)CC2=C1CC(C)(C)CC2=O` gave MenB inh -24, MbtI inh 10, PV pol inh 101 and PV pol inh intensity 100.

Ordered by number of heavy atoms (ascending): some entries from above
For O=c1oc2cc(O)ccc2s1 the results were MenB inh 5, MbtI inh 3, PV pol inh 101 and PV pol inh intensity 102.
For CNC(=O)Nc1cn(C)c2ccccc12 the results were MenB inh 6, MbtI inh -7, PV pol inh 96 and PV pol inh intensity 98.
`CCCCOC(=O)c1cc(O)c(O)c(O)c1` gave MenB inh -32, MbtI inh 103, PV pol inh 101 and PV pol inh intensity 102.
`COc1ccc(CNc2cc(C)ccn2)cc1` gave MenB inh 8, MbtI inh -30, PV pol inh 103 and PV pol inh intensity 99.
`O=C(N1CCOCC1)C(F)(F)C(F)(F)C(F)(F)F` gave MenB inh -22, MbtI inh -11, PV pol inh 100 and PV pol inh intensity 103.
`CCCNC(=O)CSc1nccn1Cc1ccco1` gave MenB inh -7, MbtI inh 8, PV pol inh 102 and PV pol inh intensity 100.
For CC1=C(C(=O)OC(C)C)C(C)C(C(=O)OC(C)C)=C(C)N1 the results were MenB inh -80, MbtI inh -94, PV pol inh 104 and PV pol inh intensity 100.
CCc1ccc(N/N=C(\C#N)C(=O)N2CCN(C)CC2)cc1 was read as MenB inh -139, MbtI inh 6, PV pol inh 102 and PV pol inh intensity 110.
Oc1ccccc1-c1cc(C(F)(F)F)nc(-c2ccccc2)n1 was read as MenB inh 16, MbtI inh -4, PV pol inh 101 and PV pol inh intensity 104.
For CN1CCN(C(=O)c2cc3c(ccc4ccccc43)oc2=O)CC1 the results were MenB inh -26, MbtI inh 107, PV pol inh 101 and PV pol inh intensity 96.
`CCCCN1CN(CCc2ccccc2)CC2=C1CC(C)(C)CC2=O` gave MenB inh -24, MbtI inh 10, PV pol inh 101 and PV pol inh intensity 100.
Screening CCOC(=O)C1CCN(C(=O)Cn2cc(C(F)(F)F)cc(Cl)c2=O)CC1 returned MenB inh -1, MbtI inh 5, PV pol inh 102 and PV pol inh intensity 106.
N#Cc1nc(NC(=O)c2cc(-c3cccs3)nc3ccccc23)[nH]c1C#N was read as MenB inh -1, MbtI inh 22, PV pol inh 114 and PV pol inh intensity 118.
Screening O=C(Cc1cccc2ccccc12)N(Cc1nnc(-c2ccccc2Cl)o1)C1CC1 returned MenB inh -21, MbtI inh 12, PV pol inh 104 and PV pol inh intensity 108.

In the list so far, two have a thiophene ring, fused or not.
N#Cc1nc(NC(=O)c2cc(-c3cccs3)nc3ccccc23)[nH]c1C#N was read as MenB inh -1, MbtI inh 22, PV pol inh 114 and PV pol inh intensity 118.
For COCc1cc(C)nc2sc(C(=O)OC)c(-n3cccc3)c12 the results were MenB inh -3, PV pol inh 102 and PV pol inh intensity 97.

Compound activity deposited in PubChem BioAssay by ICCB-Longwood Screening Facility, Harvard Medical School.
